High-throughput results as filed in PubChem.
CDC25B CDK2 inh = human CDC25B-CDK2/CyclinA binding inhibition; z-score (concentration not given with the values); HTRF CDC25B-CDK2/CyclinA binding, anti-His/anti-Flag; hits give high values; AID 1259370; 94,000 tested, 0.72% active; P30305+P24941;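 note: score is relative to mean and SD of negative controls; strong numbers were not always called active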
TAR Tat displ = HIV-1 TAR-Tat binding disruption | 100,000 tested, 0.6% active | HIV-1 TAR RNA, Tat peptide displacement FRET; hits give high values | z-score (concentration not given with the values);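 note: score is relative to mean and SD of negative controls; some compounds called inactive have numbers as strong as hits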
Numbers without * were called inactive; . = not tested or not shown.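 Rule for the calls: active = z-score from 3 up in half or more of its runs; inactive = the rest.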

Values in the order: CDC25B CDK2 inh | TAR Tat displ
1	CC(=O)N1c2ccc(S(=O)(=O)N3CCCCC3)cc2CC1C(=O)N1CCC(C)CC1 (configuration not stated)
 : . | 0.53
2	Cn1c(-c2nnc(SCC(=O)NCc3ccc4c(c3)OCO4)o2)cc2ccccc21
 : -0.51 | 0.92
3	Cc1nc2cccnc2n1C1CCN(C(=O)NC2CCCC2)CC1
 : . | 1.3
4	Cc1ccc(S(=O)(=O)NC(c2ccc(Cl)cc2)c2nnc(-c3ccccc3)o2)cc1 (configuration not stated)
 : . | 0.62
5	COc1ccc(Nc2nc(N)nc(CN3CCc4ccccc4C3)n2)cc1
 : -0.24 | 0.59
6	COc1ccc(N2CCN(c3ncnc4onc(C)c34)CC2)cc1
 : . | 0.2
7	CC1CCc2c(sc3c2c(=O)n(C)c2nnc(SCc4ccc5c(c4)OCO5)n32)C1 (configuration not stated)
 : -0.72 | .
8	COc1ccc(-c2nnc(SCc3ccccc3Cl)o2)cc1
 : -2 | -1.3
9	Cc1[nH]n(-c2ccccc2)c(=O)c1C1(C(F)(F)F)C(=O)Nc2c1c(=O)n(C)c(=O)n2C (configuration not stated)
 : -3.1 | .
10	COc1cc(C(c2c[nH]c3ccccc23)c2c[nH]c3ccccc23)ccc1OCC(=O)O
 : 0.54 | -8
11	NC(=O)C1CCN(C(=O)c2n[nH]c(=O)c3ccccc23)CC1
 : -0.19 | .
12	CCOC(=O)/C=C1\CSCC(C(=O)OCC)N1 (configuration not stated)
 : -0.99 | .
13	COc1ccc(NS(=O)(=O)c2ccc3[nH]c4c(c3c2)CCCC4)cc1Cl
 : . | 0.28
14	CCc1cc2c3c([nH]c2cc1S(=O)(=O)N1CCc2ccccc2C1)CCCC3=O
 : . | -0.6
15	COc1cccc(C2C(C#N)=C(N)Oc3n[nH]c(-c4ccc5c(c4)OCO5)c32)c1OC (configuration not stated)
 : -0.11 | 1.5
16	O=C(NC1CCCC1)C(NS(=O)(=O)c1ccc(Br)s1)c1ccccc1 (configuration not stated)
 : -2.2 | .
17	COC(=O)C1=C(C)N=C2SCCC(=O)N2C1c1ccc(OC)c(OC)c1 (configuration not stated)
 : -0.56 | -0.33
18	C=CCN1C(=O)C2(c3ccccc31)c1c(oc3cc(C)c(C)cc3c1=O)C(=O)N2CCCOC(C)C (configuration not stated)
 : -2.6 | 0.98
19	C=CCN1C(=O)C(O)(CC(=O)c2ccc(C)cc2C)c2cc(Br)ccc21 (configuration not stated)
 : -0.93 | .
20	O=C(Nc1cccc(-c2nc3cccnc3s2)c1)c1ccc2ccccc2n1
 : -1.4 | 0.32
21	CCCCOC(=O)Cc1c(O)c2ccccc2[nH]c1=O
 : . | 0.18
22	COc1cccc2c1OC(c1cccnc1)N1N=C(c3ccccc3O)CC21 (configuration not stated)
 : -0.82 | -0.67
23	CCN1CCN(c2nnc(Cc3cccnc3)c3ccccc23)CC1
 : -0.83 | 1.3
24	COc1ccc(-c2nn3c(=O)cc(CSc4ccc(C)cc4)nc3s2)cc1
 : -2.6 | 1.6
25	O=C(NNc1c(Cl)cccc1Cl)c1ccno1
 : -0.62 | .
26	O=C1NC(=S)N/C1=C\c1cccnc1
 : -2.5 | .
27	COC(=O)c1ccc(COc2ccc3c4c(c(=O)oc3c2)CCC4)o1
 : -1.1 | .
28	CC(NS(C)(=O)=O)C(c1cccs1)N1CCOCC1 (configuration not stated)
 : -1.2 | .
29	Cc1cc(Oc2ncccc2[N+](=O)[O-])c2ccccc2n1
 : -2.1 | .
30	CC(C)n1cnc2nc(CSc3ccc(NC(=O)COc4ccc(F)cc4)cc3)cc(=O)n21
 : -3 | 1.1
31	CCCn1nnc2cc(-c3noc(COc4ccc(Cl)cc4)n3)ccc21
 : . | 2.4
32	CN(C)S(=O)(=O)c1cccc(-c2cn3ccccc3n2)c1
 : -1.2 | 0.39
33	C=CCn1c(N)c(C(=O)OC)c2nc3ccccc3nc21
 : -4.8 | .
34	COc1ccccc1C(=O)CC1(O)C(=O)N(Cc2ccccc2Cl)c2ccccc21 (configuration not stated)
 : 2 | 1.6
35	CC1CCc2nn(CC(=O)Nc3ccc(Br)cc3F)cc2C1 (configuration not stated)
 : -1.1 | .
36	O=C(NCc1ccco1)C1CCN(c2nc3cccnc3s2)CC1
 : . | 0.52
37	Cc1cc(C)c(S(=O)(=O)Nc2ccc[nH]c2=O)c(C)c1
 : 9.4* | -1.9
38	CC1CC(C)CN(c2nc(Nc3ccc(F)cc3)c3cnn(C)c3n2)C1 (configuration not stated)
 : . | -1.8
39	CCS(=O)(=O)Nc1ccc2c(c1)CC(=O)N2
 : . | 1.1
40	CSc1nnc2c(n1)[nH]c1ccc(C)cc12
 : -0.47 | 0.03
41	Cc1cccc2nc(-c3ccccc3)oc(=O)c12
 : -2 | .
42	Cn1ncc2c(NCc3ccccc3Cl)nc(NCCCO)nc21
 : . | 2.1
43	COc1cccc(OCCSc2nc3ccccc3c(=O)[nH]2)c1
 : -0.65 | 1.1
44	CC1CCCN(C(=O)Cn2c(=O)oc3cc(S(=O)(=O)N4CCc5ccccc54)ccc32)C1 (configuration not stated)
 : -0.37 | -0.41
45	COC(=O)CSc1nc2ccc(NC(=O)CSc3nnnn3-c3ccccc3)cc2s1
 : -5.6 | .
46	COc1cc2c(c(OC)c1)C(c1ccc(Cl)cc1)C1=C(CC(C)(C)CC1=O)N2 (configuration not stated)
 : -0.82 | 3.2
47	O=C1CC(C(=O)Nc2ccc(Cl)cc2)N=C(N2CCCCC2)N1 (configuration not stated)
 : . | 0.84
48	CN1CC2=C(Nc3ncnn3C2c2ccc(Cl)cc2)/C(=C/c2ccc(Cl)cc2)C1 (configuration not stated)
 : -0.31 | -0.2
49	COc1cc(OC)c(NS(=O)(=O)c2cc(-c3cnc(C)o3)ccc2C)cc1Cl
 : . | 2.5
50	CN1CCN(C(CNS(=O)(=O)c2ccc(Br)cc2)c2ccc(N(C)C)cc2)CC1 (configuration not stated)
 : . | 0.79
51	NC(=O)CSc1nc(-c2ccc(F)cc2)nc2c1Cc1ccccc1O2
 : -1.4 | 2.4
52	CSc1ccc([N+](=O)[O-])cc1-c1ccn(S(C)(=O)=O)n1
 : -0.51 | .
53	Cc1ccc(-c2noc(-c3ccccn3)n2)s1
 : . | 1.2
54	O=C(NCc1ccco1)c1nnsc1NC(=O)N1CCN(c2ccccc2)CC1
 : . | 0.37
55	COC(=O)c1ccc(C2Oc3ccccc3C3CC(c4cc(OC)ccc4O)=NN32)cc1 (configuration not stated)
 : -0.39 | -0.8
56	CCCCc1cc(=O)oc2c(C)c(OC3CCCCC3=O)ccc12 (configuration not stated)
 : 0.22 | .
57	O=C(Nc1nc(-c2cc3ccccc3oc2=O)cs1)c1ccccc1Cl
 : 0.4 | .
58	CCCc1cc(=O)n2nc(N(C)CC(=O)NCCCN3CCCC3=O)sc2n1
 : -1.6 | 0.89
59	Cc1ccc(C)n1N(C)c1cccc(F)c1C#N
 : -1 | .
60	Cc1ccc(S(=O)(=O)n2nc(C)cc2C)cc1
 : -0.58 | 0.65

Next section:
Values in the order: CDC25B CDK2 inh | TAR Tat displ
61	O=C(CCCn1ncn2c(cc3occc32)c1=O)NCc1cccs1
 : -2.5 | 2
62	Nc1ccc(-c2nc3cc(Cl)ccc3o2)cc1
 : 0.65 | 0.06
63	O=c1[nH]c2cc3c(cc2c(=O)n1CCc1nc(-c2ccccc2Cl)no1)OCO3
 : . | 0.66
64	CCOc1ccc2nc(SCC(=O)Nc3ccc4nc(SCC(=O)NC5CC5)sc4c3)sc2c1
 : -3.5 | .
65	CCOC(=O)c1c(C)[nH]c(C)c1S(=O)(=O)Nc1cc(Cl)c(OC)cc1OC
 : . | 0
66	Nc1ccccc1NC(=O)c1ccc(CNC(=O)OCc2cccnc2)cc1
 : . | 1.5
67	Cc1ccc2nc(C3=C(O)CN(c4ccc(Cl)cc4)C3=N)[nH]c2c1
 : -0.25 | -0.7
68	CSc1cccc(NC(=O)CN(C)S(=O)(=O)c2cccc3nsnc23)c1
 : -0.7 | .
69	CCC(C)Nc1nc(C)nc2c1sc1nc3c(cc12)COC(C)(C)C3 (configuration not stated)
 : 1.7 | .
70	COc1ccc(S(=O)(=O)[C@H]2CS(=O)(=O)C[C@@H]2N2CCOCC2)cc1
 : -1.4 | 1.7
71	COc1ccc(-c2nnc3c4ccccc4n(Cc4cccc(OC)c4)cc2-3)cc1
 : -4.8 | 3
72	Nc1c(-c2ccncc2)[nH]c2c(Cl)cccc12
 : . | 0.81
73	Cn1c(-n2cccc2)c(-c2c(-c3ccccc3)[nH]c3c2c(=O)[nH]c(=O)n3C)c(=O)[nH]c1=O
 : -2.5 | 2.9
74	O=C(CN1c2cccc3cccc(c23)S1(=O)=O)Nc1cccc(Br)c1
 : -1.8 | -1.3
75	COc1ccc(-n2c(Cn3c(=O)sc4ccccc43)nnc2SCC(=O)N2CCCC2)cc1
 : -1.4 | .
76	CCOc1ccc(-c2nn3c(C(C)(C)C)nnc3s2)cc1
 : 0.91 | 0.73
77	c1ccc(-c2nnsc2-c2ccccc2)cc1
 : -1.8 | .
78	c1ccc(Cc2nnc(-c3ccc4c(c3)OCO4)o2)cc1
 : -1.9 | -0.11
79	Cc1c([N+](=O)[O-])sc2nc[nH]c(=O)c12
 : -0.33 | 11*
80	O=C(Nc1ccc(Br)cc1)N1CCSc2ccccc21
 : . | 2.1
81	COc1cc(C2OC(c3cc(C4CC4)nc4ccccc34)=NN2C(C)=O)ccc1OC(C)=O (configuration not stated)
 : . | 0.93
82	CCOC(=O)N1CCC(NC(=O)C2CCCN(c3nc4ccccc4o3)C2)CC1 (configuration not stated)
 : . | 1.8
83	COc1cc(CC(=O)O)ccc1O
 : -0.27 | .
84	N#CCCn1cccc1CN1CCOCC1
 : -0.75 | .
85	CCCn1c(SCCO)nc2c1c(=O)[nH]c(=O)n2C
 : -0.11 | 0.03
86	Cn1c(N)c(C(C[N+](=O)[O-])c2c(F)cccc2Cl)c(=O)n(C)c1=O (configuration not stated)
 : -0.76 | .
87	Cc1nc(C)c(NC(=O)Nc2ccc(Cl)cc2)cc1NC(=O)Nc1ccc(Cl)cc1
 : -0.13 | 2.5
88	CCN(CC)CC#CC(O)(c1ccccc1)c1cccc(F)c1 (configuration not stated)
 : -0.1 | 0.1
89	COc1cccc(-c2nc(-c3ccc(C)cc3)no2)c1OC
 : -1.3 | 3.5
90	O=C(O)c1ccc(N2C(=O)c3[nH]nc(-c4ccccc4)c3C2c2cccs2)cc1 (configuration not stated)
 : -1.4 | 0.41

Profiles as entered above. Order of values: CDC25B CDK2 inh | TAR Tat displ
N#CCCn1cccc1CN1CCOCC1 across the screens: -0.75 | .
CCOC(=O)N1CCC(NC(=O)C2CCCN(c3nc4ccccc4o3)C2)CC1 (configuration not stated) across the screens: . | 1.8
CCOc1ccc(-c2nn3c(C(C)(C)C)nnc3s2)cc1 across the screens: 0.91 | 0.73
c1ccc(Cc2nnc(-c3ccc4c(c3)OCO4)o2)cc1 across the screens: -1.9 | -0.11
c1ccc(-c2nnsc2-c2ccccc2)cc1 across the screens: -1.8 | .

(further entries)
Values in the order: CDC25B CDK2 inh | TAR Tat displ
91	Cn1nnnc1SCCNCc1ccc2c(c1)n(C)c(=O)n2C
 : -1.9 | 1.8
92	CO/N=C(/C(=O)NC1C(=O)N2C(C(=O)O)=C(COC(N)=O)CSC12)c1ccco1 (configuration not stated)
 : . | 1.3
93	CC1=C(c2ccccc2)S(=O)(=O)NC1=NCc1ccccc1
 : -1.7 | 0.74
94	Cn1c(NCCCO)nc2c1c(=O)[nH]c(=O)n2C
 : -0.91 | 2.7
95	Cc1ccc2sc(NC(=O)NC(=O)c3c(Cl)cccc3Cl)nc2c1
 : -3.5 | .
96	c1ccc(N2CCN(c3nc4ccccc4c4nc(-c5cccnc5)nn34)CC2)cc1
 : 0.11 | 0.51
97	CC1=C(c2ccc(C(C)C)cc2)S(=O)(=O)N=C1Nc1cccc(F)c1
 : -2.5 | 0.69
98	O=C(Nc1nnc(SCc2ccccc2)s1)c1cc(-c2cccs2)on1
 : -1.1 | 2
99	CCN(CC)C(=O)C1CCCc2c1[nH]c1ccc(Cl)cc21 (configuration not stated)
 : -2.5 | 1.8
100	CCOc1ccc(-n2c(C)nnc2SCc2nc(-c3ccccc3C)no2)cc1
 : 0.8 | 2
101	CCN1CCN(CCCNC(=O)C2CCN(c3nc4ncccc4n4cccc34)CC2)CC1
 : . | 0.98
102	CN1C(=O)c2ccccc2C(C(=O)NC2CC2)C1c1c[nH]c2ccccc12 (configuration not stated)
 : -2.3 | .
103	Clc1ccc(-n2cc(-c3ccccc3)c3c(NCc4cccnc4)ncnc32)cc1
 : -0.57 | 1.4
104	O=c1cc2nc(-c3cccs3)nc(SCc3ccccc3)n2[nH]1
 : . | 1.9
105	O=C(/C=C/c1ccccc1)NC(=S)Nc1ccc(O)c(-c2nc3ccccc3s2)c1
 : -2.8 | .
106	CCC(=O)N1CCc2cc(Br)cc(S(=O)(=O)NCCN3CCCC3)c21
 : 0.75 | .
107	CCOC(=O)c1noc2ncnc(Nc3ccc(OCC)cc3)c12
 : . | -1.3
108	CCCn1cc(S(=O)(=O)c2ccc(F)cc2)c(=O)c2cc(OCC)ccc21
 : -1.4 | 0.8
109	CC(=O)NC1=NN(C(C)=O)C(c2coc3ccccc3c2=O)S1 (configuration not stated)
 : 0.22 | .
110	Cc1nc2c(C)cccn2c(=O)c1NC(=O)Cc1ccc(F)cc1
 : . | 0.8
111	CC(C)NS(=O)(=O)c1ccc(CN2C(=O)c3cccnc3C2=O)s1
 : . | 1.8
112	O=C(O)CSc1nc(-c2ccccc2)nc2c1Cc1ccccc1O2
 : -0.84 | 2.5
113	COc1ccc(N2CCCS2(=O)=O)cc1NC(=O)COc1ccc(Cl)cc1
 : . | 0.53
114	CCOc1ccc(-c2n[nH]c3c2C(c2ccc(OC)cc2OC)NC3=O)cc1 (configuration not stated)
 : -0.16 | 1.2
115	Cc1nc(C(F)(F)F)ccc1C(=O)NNC(=S)Nc1ccc(F)c(Cl)c1
 : -0.77 | .

The order is random. Share with any hit: about 0.94%.
